Menin MLL FP FL: qHTS Assay for Inhibitors Targeting the Menin-MLL Interaction in MLL Related Leukemias: Competition With Fluorescein Labeled MLL-derived Peptide; Fluorescence polarization, fluorescein-MLL peptide displacement from menin; FP activity change, % at 61.4 µM; 290,000 tested, under 10 active; inconclusive = falling polarisation curve, or a change in total fluorescence; inactive = total fluorescence flat and polarisation flat or rising; no compound was filed as active; the % refers to the polarisation; negative = inhibition;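 further: % of control where 0% means no effect; inhibitors lower the polarisation; unlabelled MLL peptide was the positive control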
gsp agonist: qHTS for Agonist of gsp, the Etiologic Mutation Responsible for Fibrous Dysplasia/McCune-Albright Syndrome: qHTS | gsp mutant cells, cAMP HTRF, 30 min; control for the full effect not named in the record | Potency, µM (highest dose often 76.9 µM), for the others: top-dose activation (cAMP increase), hits mostly activators | 0.13% of 340,000 active; active = well fitted activation curve with a large enough effect; inconclusive = small, poorly fitted or top-dose-only effect, or another doubt; inactive = no such curve, though single readings can be large or run the other way; cell line not stated here;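 further: phosphodiesterase inhibitor Ro 20-1724 added with compounds to block cAMP breakdown; potency means the concentration at half of the fitted maximal effect; nearly all actives have a fitted effect of over 60% in size; about a fifth of the inactives were tested at one dose only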
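Cells stably selected in G418 were plated at 2000/well, grown 16-24 hr, then given compounds in DMSO with the PDE inhibitor […] (300 uM solution added) for 30 min at 37C; cAMP was read by HTRF.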
ClpP mod: qHTS Assay for Activators of ClpP | Potency, µM (top dose mostly 57.5 µM), for the others: at the top dose activity change, negative = active | 1.9% of 340,000 active | AID 651965, 2013 | purified B. subtilis ClpP, FRET peptide cleavage, 20 min | ATP-dependent Clp protease proteolytic subunit (Bacillus subtilis (strain 168)), P80244; active = well fitted falling curve with a large enough effect; inconclusive = small, poorly fitted or top-dose-only effect; inactive = no such curve, though single readings can be large or run the other way; further: potency means the concentration at half of the fitted maximal effect; the source files actives as falling curves though it sought activators and does not explain the sign; nearly all actives have a fitted effect of over 65% in size; many hits overshoot -100%
Target sequence (P80244 whole entry, looked up): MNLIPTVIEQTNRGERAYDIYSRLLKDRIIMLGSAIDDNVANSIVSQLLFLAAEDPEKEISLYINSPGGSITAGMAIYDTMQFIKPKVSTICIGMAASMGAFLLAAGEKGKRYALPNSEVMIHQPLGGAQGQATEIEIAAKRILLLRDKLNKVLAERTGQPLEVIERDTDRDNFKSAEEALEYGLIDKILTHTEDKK
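FRET quenching reversal measured ClpP activation: 10 microg/mL B. subtilis ClpP at pH 8 with the FRET-FV decapeptide, read at 430 nm after 320 nm excitation. The 20-min minus 0-min signal was scaled between DMSO/no-enzyme wells and ADEP (5.8 microM final).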
gsp antagonist: qHTS for Antagonists of gsp, the Etiologic Mutation Responsible for Fibrous Dysplasia/McCune-Albright Syndrome: qHTS; gsp-mutant cells, cAMP HTRF, 30 min; control for the full effect not named in the record; Potency, µM (top dose mostly 76.9 µM), for the others: at the highest dose activity change, negative = inhibition, hits mostly inhibitors; AID 624288, 2012; 0.4% of 340,000 active; active = falling curve of any shape with a large fitted effect; inconclusive = falling curve, mostly with a smaller effect; inactive = flat or rising curve; cell line not stated here;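 further: intracellular cAMP measured with PDE inhibitor Ro 20-1724 present during compound exposure; potency means the concentration at half of the fitted maximal effect; on the % scale 0 is the no-effect control and ±100 the full control effect; nearly all actives have a fitted effect of over 65% in size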
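HTRF cAMP measurement after 30 min RT detection following 30 min, 37C compound treatment alongside […] (added as 300 uM solution) in G418-selected cells seeded at 2000/well and grown 16–24 h.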
CtBP-E1A blk: qHTS Assay for Inhibitors of the CtBP/E1A Interaction | 0.49% of 340,000 active | AID 651724, 2012 | CtBP / adenovirus E1A interaction (AlphaScreen) | AlphaScreen GST-E1A/His-CtBP binding, 1536-well; stronger effect = lower value; control for the full effect not named in the record | activity change, % (no concentration beside the values); in the data active means activity change below about -65%; inconclusive means about -30% to -65%; inactive means above about -30%; further: on the % scale 0 is the no-effect control and ±100 the full control effect; compound concentration not given in the record
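Steps: dispense buffer (Tris pH 8.0, NaCl 300 mM, TCEP 1 mM, BSA, Tween 20); add 5X protein mix (GST-E1A, His-CtBP, 125 nM each); pin 23 nL compound; 2 h at 37 °C, dark; add 5X beads (50 ug/mL); 1 h; read.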
Sfp inh: qHTS Assay for Inhibitors of Bacillus subtilis Sfp phosphopantetheinyl transferase (PPTase); Biochemical Sfp PPTase activity, qHTS; Potency, µM, inactives show max response, negative = inhibition, usual class: inhibitors; 3.5% of 310,000 active; active means well fitted inhibition curve with a large enough effect; inconclusive means small, poorly fitted or top-dose-only effect, or another doubt; inactive means no such curve, though single readings can be large or run the other way;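 further: the enzyme is Sfp with the accession as filed and its product quenches rhodamine fluorescence; potency means the concentration at half of the fitted maximal effect; 0% = enzyme reaction without inhibitor and -100% = no enzyme wells; top concentration of the series not given in the record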
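Fluorescence-quenching assay: 15 nM Sfp-PPTase preincubated 15 min at room temperature with compound, then 5 uM rhodamine-CoA and 12.5 uM BHQ-2-labelled YbbR peptide added. Fluorescence (ex 525/em 598 nm) read at start and after 30 min; difference gives rate.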
TRPV1 PAM: HTS Assay for Compounds that Act as Potentiators of the Vanilloid Receptor 1; TRPV1-expressing cells, Fluo-8 calcium influx, capsaicin EC20 potentiation; host cell line not named in the record; control for the full effect not named in the record; AID 540277, 2011; potentiation, % at 8.33 µM; 0.02% of 320,000 active; active means potentiation above 80%; inconclusive means 30% to 80%; inactive means below 30%; further: 0% is about no effect
Target sequence (Q8NER1 whole entry, looked up): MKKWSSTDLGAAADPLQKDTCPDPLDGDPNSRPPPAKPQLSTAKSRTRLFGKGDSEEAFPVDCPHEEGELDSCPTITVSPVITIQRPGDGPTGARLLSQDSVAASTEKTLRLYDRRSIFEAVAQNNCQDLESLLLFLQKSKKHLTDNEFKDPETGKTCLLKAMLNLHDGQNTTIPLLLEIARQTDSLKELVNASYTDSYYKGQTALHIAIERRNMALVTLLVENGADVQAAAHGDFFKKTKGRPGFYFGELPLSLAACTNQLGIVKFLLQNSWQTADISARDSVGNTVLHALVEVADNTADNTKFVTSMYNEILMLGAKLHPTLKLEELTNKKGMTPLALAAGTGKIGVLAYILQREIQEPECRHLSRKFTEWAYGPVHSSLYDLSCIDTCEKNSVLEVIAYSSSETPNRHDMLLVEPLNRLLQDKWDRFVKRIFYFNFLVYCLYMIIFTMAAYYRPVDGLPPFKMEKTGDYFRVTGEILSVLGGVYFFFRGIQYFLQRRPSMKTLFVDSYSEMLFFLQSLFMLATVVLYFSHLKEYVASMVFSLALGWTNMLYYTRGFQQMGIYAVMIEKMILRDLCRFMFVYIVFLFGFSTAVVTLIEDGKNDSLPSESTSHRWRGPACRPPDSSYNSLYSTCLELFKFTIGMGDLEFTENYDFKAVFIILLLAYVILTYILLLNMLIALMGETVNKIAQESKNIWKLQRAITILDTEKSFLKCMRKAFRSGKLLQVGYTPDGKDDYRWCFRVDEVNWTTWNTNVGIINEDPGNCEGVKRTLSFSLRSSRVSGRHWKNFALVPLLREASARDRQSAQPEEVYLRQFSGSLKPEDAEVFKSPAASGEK
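Fluo-8 calcium influx in TRPV1-expressing cells, kinetic read (ex 480/em 520 nm). Compound added and read 3 min for agonist activity, followed by capsaicin at EC20 final and 2 min further read for enhancement.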
* hit, by the source's call; ? = inconclusive; . = no result given; [ ] = remark or other dose.

Sequence of screens: Menin MLL FP FL | gsp agonist | ClpP mod | gsp antagonist | CtBP-E1A blk | Sfp inh | TRPV1 PAM
> Cc1ccc(C)c(OCCC(=O)OCC(=O)NNC(=O)c2ccccc2)c1
    . | 20.0% | 0.8% | 10.1% | 2.8 | . | 0.4
> c1cc(CNC2=NCCCCC2)ccn1
    4.3 | 3.7% | 0.1% | 26.2% | 0.7 | 7.0% | 18.8
> O=C(COC(=O)c1cc(Br)ccc1O)Nc1cccnc1Cl
    . | ? | 9.9% | 10.1% | 2.2 | . | 1.7
> CC(=O)c1ccc(OC(C)C(=O)Nc2cccc(S(=O)(=O)NCc3ccco3)c2)cc1 (centres undefined)
    . | 13.1% | 1.5% | -11.5% | 1.2 | . | .
> CN(Cc1cn(C)nc1-c1cccc(Cl)c1)C1CCOCC1
    -2.0 | -0.8% | -1.3% | 1.1% | . | -8.2% | -17.1
> CN1CCN(NC(=O)c2cc(S(=O)(=O)Nc3ccc(Cl)cc3)ccc2Cl)CC1
    -0.8 | 12.1%[15.4 µM] | . | 9.2% | 0.2 | 10.6% | 0.5
> CCSc1nc2c(sc3ccccc32)c(=O)n1C(C)C
    9.7 | ? | -2.9% | -0.8% | 18.7 | ? | 6.9
> O=C(CNC(=S)NC(=O)c1ccccc1)c1ccccc1
    1.9 | -1.2% | -2.0% | -0.9% | 7.0 | -25.7% | -15.0
> Cc1c(Cl)cn2c(=O)cc(CN3CCN(c4ccc(F)cc4)CC3)nc2c1Cl
    -0.1 | . | . | . | . | ? | -4.4
> COc1ccc(C(=O)Nc2ccc(C(=O)NCCc3ccc(OC)c(OC)c3)cc2)cc1
    -2.8 | -67.5%[inhibitor] | -8.8% | 7.8% | . | -13.2% | 4.3
> CCOc1ccccc1N1C(=O)c2ccc(C(=O)O)cc2C1=O
    4.1 | -0.2% | -0.9% | 0.8% | 8.4 | 7.4% | -1.1
> COc1cccc(S(=O)(=O)Nc2cccc(C(=O)N3CCOCC3)c2)c1
    0.3 | -2.3% | 1.8% | -4.8% | -2.5 | 28.3% | 1.3
> NC(=O)C1CCCN(C(=O)c2ccc(Cl)c(S(=O)(=O)N3CCc4ccccc43)c2)C1 (centres undefined)
    . | -10.2% | -1.5% | -9.7% | -17.2 | . | 17.5
> CC(=O)Nc1cccc(NC(=O)Nc2cccc3ccccc23)c1
    . | 18.6% | ? | 0.2% | -4.5 | 0.0% | 0.9
> Cc1ccn2c(=O)nc(SCC(=O)NC3CCCC3)nc2c1
    . | ? | -22.4% | -2.2% | -18.2 | . | ?
> CCCCCn1c(CN2CCN(C(=O)OCC)CC2)nc2c1c(=O)[nH]c(=O)n2C
    0.9 | 7.6% | -10.1% | -0.3% | 3.3 | 3.1% | -3.3
> CC(=O)Nc1ccc(NC(=O)CSc2nc3c(=O)n(C)c(=O)n(C)c3n2C)cc1
    . | ? | -1.3% | 13.6% | -15.5 | . | 8.8
> COc1ccc(S(=O)(=O)N2CCCCC2)cc1NC(=O)C1CC(=O)N(Cc2ccccc2)C1 (centres undefined)
    . | -11.5% | -1.9% | -5.2% | -17.3 | . | -2.2
> CC(=O)N1CCN(Cc2cc(=O)n3cc(Cl)c(C)c(Cl)c3n2)CC1
    -0.6 | 40.4% | -10.1% | 12.1% | 2.5 | 13.7% | 0.0
> O=C(N/N=C/c1ccc(N2CCCCC2)o1)c1ccccc1
    11.8 | 7.7% | -3.0% | -0.7% | -4.5 | -107.5% | 3.3
> COc1ccc(CCNC(=O)c2ccc(=O)[nH]c2)cc1
    -1.4 | ? | . | 7.7% | -22.8 | 12.4% | 2.4
> CCOC(=O)c1ccc(N2C(=O)CC(N3CCCC(C)C3)C2=O)cc1 (centres undefined)
    2.8 | 3.7% | 1.6% | 1.4% | 0.9 | -22.1% | -5.8
> COc1ccc(Cn2nnc3c(=O)[nH]c(C4CCN(C(=O)c5ccccc5Cl)CC4)nc32)cc1
    -0.4 | -15.1% | -3.6% | -6.8% | -3.6 | -21.0% | 4.8
> C[C@H]1COC(=O)[C@H](Cc2ccc(F)cc2)C/C=C\C[C@@H](CC(=O)N(CCO)Cc2ccccc2)C(=O)N1
    . | -16.3% | -2.3% | -6.0% | 0.7 | . | .
> NS(=O)(=O)c1ccc(NC(=O)CSc2ncn[nH]2)cc1
    -0.8 | ? | . | 3.7% | 6.2 | 8.7% | 25.6
> COc1ccc(CNc2nc(-c3ccccc3)nn2C(=O)c2cccs2)cc1
    -0.9 | 36.6% | ? | 18.8% | 13.1 | -12.5% | 10.0
> Cc1ccccc1OCC(=O)NCc1ccccc1
    1.5 | -1.5%[15.4 µM] | . | -8.3% | 7.6 | 16.6% | -12.7
> CCn1c(-c2cc3c(C(F)(F)F)nn(C)c3s2)n[nH]c1=S
    -0.6 | 22.9% | 28.2µM* | -6.1% | -14.3 | 70.8µM* | 8.6
> CCOc1ccc(S(=O)(=O)N2CCN(Cc3ccco3)CC2)cc1
    . | -7.6%[15.4 µM] | 1.7% | 3.5% | -3.8 | 14.0% | -8.4
> CC(C)N(C)C(=O)c1ccc(OC2CCN(CCc3ccccc3)CC2)cc1
    -7.4 | 3.2% | 0.0% | 7.7% | . | 10.9% | 9.7

Quoted from above, 6 compounds:
Sequence of screens: Menin MLL FP FL | gsp agonist | ClpP mod | gsp antagonist | CtBP-E1A blk | Sfp inh | TRPV1 PAM
> COc1ccc(CCNC(=O)c2ccc(=O)[nH]c2)cc1
    -1.4 | ? | . | 7.7% | -22.8 | 12.4% | 2.4
> CCOC(=O)c1ccc(N2C(=O)CC(N3CCCC(C)C3)C2=O)cc1 (centres undefined)
    2.8 | 3.7% | 1.6% | 1.4% | 0.9 | -22.1% | -5.8
> COc1ccc(Cn2nnc3c(=O)[nH]c(C4CCN(C(=O)c5ccccc5Cl)CC4)nc32)cc1
    -0.4 | -15.1% | -3.6% | -6.8% | -3.6 | -21.0% | 4.8
> C[C@H]1COC(=O)[C@H](Cc2ccc(F)cc2)C/C=C\C[C@@H](CC(=O)N(CCO)Cc2ccccc2)C(=O)N1
    . | -16.3% | -2.3% | -6.0% | 0.7 | . | .
> NS(=O)(=O)c1ccc(NC(=O)CSc2ncn[nH]2)cc1
    -0.8 | ? | . | 3.7% | 6.2 | 8.7% | 25.6
> COc1ccc(CNc2nc(-c3ccccc3)nn2C(=O)c2cccs2)cc1
    -0.9 | 36.6% | ? | 18.8% | 13.1 | -12.5% | 10.0

Next section:
structure	Menin MLL FP FL	gsp agonist	ClpP mod	gsp antagonist	CtBP-E1A blk	Sfp inh	TRPV1 PAM
Cc1ccccc1Cn1cc(S(=O)(=O)c2ccc(C(C)C)cc2)c(=O)c2cc3c(cc21)OCO3	.	-16.1%[15.4 µM]	.	-20.4%	2.4	.	.
Cc1nn(-c2ccccc2)c(Cl)c1/C=N/NC(=O)CNC(=O)c1ccccc1Cl	0.1	?	0.3%	3.6%	-3.2	-12.3%	-5.9
CN=C(Cc1ccccc1)C1=C(O)CC(C)(C)CC1=O	-3.2	9.5%[15.4 µM]	.	-6.9%	2.1	15.8%	5.8
O=C(COc1ccc(Br)cc1)N1CCN(c2ccccc2)CC1	-4.5	-26.9%	-0.6%	0.9%	-6.4	5.5%	-7.1
COc1ccc([N+](=O)[O-])cc1NC(=O)CSc1nc(C)c(C)c(C)n1	0.5	13.4%	-5.2%	11.2%	0.6	10.8%	-3.4
Cc1ccc(N2CCN(C3=NC(=O)C(Cc4ccccc4)S3)CC2)cc1 (centres undefined)	2.2	-28.0%	-0.7%	0.2%	-4.8	4.1%	3.2
C/C(=N\NC(=O)c1cccc(S(=O)(=O)Nc2ccc(C)cc2C)c1)c1ccncc1	.	-6.7%	1.2%	15.7%	4.9	.	-12.0
COc1ccc(C(=O)O)cc1S(=O)(=O)N(C)CCc1cccnc1	2.5	?	-4.2%	7.1%	2.3	-3.2%	16.7
Cc1ccc(C2CC(=O)NC3=C2C(=O)CCC3)cc1Br (centres undefined)	-1.3	-10.5%	-2.0%	-8.1%	-6.2	-0.5%	-0.5
CCn1c(C)nc2cc(C(=O)NN=Cc3ccccc3OC(F)F)ccc21	.	-8.3%	2.9%	-4.7%	-3.6	.	.
O=C(Cn1cc(COc2ccc3ccc(=O)oc3c2)nn1)c1ccc(O)cc1	.	.	4.2%	-8.1%	-28.8	.	.
CCc1nc(SCc2ccc(OC)cc2)n[nH]1	2.5	-33.9%[inhibitor]	-2.4%	-4.6%	.	10.0%	-10.5
CNC(=O)COC(=O)[C@@H](Nc1ccc(S(=O)(=O)N2CCOCC2)cc1[N+](=O)[O-])C(C)C	1.6	0.3%[15.4 µM]	3.1%	-3.2%	4.8	2.4%	4.2
CC1(c2nnc(-c3ccc(Cl)cc3)o2)CC(c2ccc(Cl)cc2)=NO1 (centres undefined)	-1.9	.	-0.7%	0.2%	11.0	-5.3%	-4.3
CC(=O)c1c(N2CCN(C(=O)c3ccco3)CC2)nc(=S)n(-c2ccccc2)c1C	4.0	?	-1.5%	-2.0%	-0.2	16.7%	-8.7
Cc1ccccc1OCCSc1nc2ncnc(N)c2[nH]1	2.0	15.2%[15.4 µM]	.	1.7%	38.4	17.1%	-15.8
COC(=O)c1c(NC(=O)C2CC2)sc(C(=O)Nc2ccccc2)c1C	4.3	4.3%	0.4%	-23.6%	.	2.6%	2.6
COc1ccc(N2C(=O)CC(N3CCC(O)(c4cccc(C(F)(F)F)c4)CC3)C2=O)cc1 (centres undefined)	3.5	-34.5%[inhibitor]	0.5%	-13.8%	4.4	-1.0%	-8.5
